High-throughput results deposited in PubChem by National Center for Advancing Translational Sciences (NCATS).
HPGD inh – inhibitors of human 15-hydroxyprostaglandin dehydrogenase (HPGD) | purified HPGD, NADH fluorescence kinetic, PGE2 substrate | Potency, µM, inactives show at the highest dose activity change, negative = inhibition, hits mostly inhibitors | actives 4.3% (n = 150,000); active = well fitted inhibition curve with a large enough effect (not every such curve was filed as active); inconclusive = small, poorly fitted or top-dose-only effect, or another doubt; inactive = no such curve, though single readings can be large or run the other way;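 note: top concentration of the series not given in the record; plate controls included wells without enzyme; inactives centre near -10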
Target sequence (P15428 whole entry, looked up): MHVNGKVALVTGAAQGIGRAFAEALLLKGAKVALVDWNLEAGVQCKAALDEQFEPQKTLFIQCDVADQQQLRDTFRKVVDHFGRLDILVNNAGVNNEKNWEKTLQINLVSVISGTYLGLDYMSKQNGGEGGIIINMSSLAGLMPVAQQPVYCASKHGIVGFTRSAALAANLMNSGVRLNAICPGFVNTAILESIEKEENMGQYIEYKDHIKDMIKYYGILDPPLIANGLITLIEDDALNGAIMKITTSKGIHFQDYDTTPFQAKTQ
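NADH formation kinetics: reaction with 30 uM PGE2 and 1 mM NAD+ (final), 20 nM enzyme, Tris-HCl pH 8 with Tween 20, after 15 min compound preincubation at room temperature. Fluorescence change, last versus first of five reads.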
Starred values were filed as active, the others as inactive; ? = inconclusive; & = joins results of further samples. % is set by controls: 0 for no effect and ±100 for the full control effect; potency is the fitted concentration of half-maximal effect.

| HPGD inh | structure |
| --- | --- |
| -4.0% | Cc1nc2ccccc2nc(=O)c1NNc1ccccc1 |
| -6.9% | CCCN(CCC)CCOc1cc(C)ccc1C(C)C |
| ? | Cc1ccc(C2NC(=O)c3ccccc3N2)s1 (centres undefined) |
| -8.8% | CC(C)C(=O)NC(=S)Nc1ccccc1C(=O)NC1CCCCC1 |
| ? | COc1ccc(NC(C)c2cc(Cl)ccc2O)cc1 (centres undefined) |
| -12.2% | O=C(CCn1c(=O)oc2ccccc21)NC1=NCCS1 |
| 1.5% | COc1ccc(N2CCN(C(=O)CN(c3ccc(Br)cc3)S(C)(=O)=O)CC2)cc1 |
| 10µM* | O=C1N/C(=N/Nc2ccccc2)S/C1=C\c1ccccc1 |
| -18.0% | CCN(CCCNC(=O)CC(C(=O)N1CCc2ccccc21)n1ccnc1)c1cccc(C)c1 (centres undefined) |
| -8.0% | CC(C)NS(=O)(=O)c1ccc(NC(=O)C2CC3C=CC2C3)cc1 (centres undefined) |
| -3.4% | CS(=O)(=O)N1CCC2(CCN(C(c3ccccc3)c3ccccc3)CC2)CC1 |
| -11.3% | COc1ccc(CCNC(=O)Cn2nnc(-c3ccc(N4CCOCC4)cc3)n2)cc1OC |
| -1.4% | Cc1ccc(CSCC(=O)NN=C2CCN(C)CC2)cc1 |
| 1.7% | CCOC(=O)COn1c(SCC(=O)OCC)nc2ccccc2c1=O |
| -1.8% | COCCN(C(=O)CCl)C(C(=O)NC1CCCCC1)c1ccccc1C (centres undefined) |
| -22.7% | CCCCn1c(=S)[nH]c2cc(S(=O)(=O)N3CCCCC3)ccc21 |
| -13.0% | CCn1cc([N+](=O)[O-])c(C(=O)N2N=C(c3ccccc3)CC2c2ccc([N+](=O)[O-])cc2)n1 (centres undefined) |
| -3.9% | COc1ccc(NC(=O)/C=C/c2cccc(F)c2)cn1 |
| -2.0% | O=[N+]([O-])c1nccn1C[C@H](O)CN1CCCCC1 |
| ? | COc1ccccc1-c1nc(C#N)c(N2CCN(Cc3ccccc3)CC2)o1 |
| -7.2% | COc1ccccc1NC(=O)CSc1nnc(-c2ccc(NC(C)=O)cc2)n1C |
| -6.6% | CCOc1cc(C2CC(=O)NC3=C2C(=O)C(C(=O)OC)C(C)C3)cc(Cl)c1O (centres undefined) |
| -8.3% | CN(C)Cc1c[nH]c2nc[nH]c(=O)c12 |
| -4.9% | Cc1cc(NC(=O)CSc2nc3ccccc3n2CC(=O)N2CCCCC2)no1 |
| -13.9% | COc1ccc2cc1Oc1ccc(cc1)CC1c3cc(c(OC)cc3CCN1C)Oc1c(OC)c(OC)cc3c1C(C2)N(C)CC3 (centres undefined) |

Part of the list above, as tab-separated lines.
compound	HPGD inh
CCCN(CCC)CCOc1cc(C)ccc1C(C)C	-6.9%
COc1ccc(N2CCN(C(=O)CN(c3ccc(Br)cc3)S(C)(=O)=O)CC2)cc1	1.5%
O=C1N/C(=N/Nc2ccccc2)S/C1=C\c1ccccc1	10µM*
COc1ccccc1-c1nc(C#N)c(N2CCN(Cc3ccccc3)CC2)o1	?
CCOC(=O)COn1c(SCC(=O)OCC)nc2ccccc2c1=O	1.7%

Following part
| HPGD inh | structure |
| --- | --- |
| -4.2% | CC(=O)Nc1ccc(OCC(O)Cn2cnc3ccccc32)cc1 (centres undefined) |
| -13.6% | COc1ccccc1NC(=O)C(=O)N/N=C(\C)CC(=O)Nc1ccc(OCc2ccccc2)cc1 |
| -2.2% | Cc1ccc2nnnc(-c3ccccc3)c2c1 |
| -13.2% | Cc1cccc(N2CC(C(=O)OCC(=O)c3ccc(OC(=O)c4cccs4)cc3)CC2=O)c1C (centres undefined) |
| -11.6% | CCn1cc(C(=O)NCc2ccc(Cl)cc2)c(=O)c2cc(S(=O)(=O)N3CCOCC3)ccc21 |
| -2.9% | CC(C)N(CCCNC(=O)CC1Oc2ccccc2NC1=O)Cc1ccccc1 (centres undefined) |
| -24.2% | CCC(C)C(=O)Nc1nc2c(s1)C(=O)CC(C)(C)C2 (centres undefined) |
| -6.1% | Cc1cc2c(cc1Cl)C(c1ccc3c(c1)OCO3)CC(=O)O2 (centres undefined) |
| -23.5% | COc1c(CC(=O)c2cc3c(cc2O)OC(C)(C)C(O)C3)ccc2c1C=CC(C)(C)O2 (centres undefined) |
| -1.5% | COc1ccc(-n2nnnc2-c2cnc(N3CCCC3)nc2C(F)(F)F)cc1 |
| -8.6% | O=C(CCNc1cccc(C(F)(F)F)c1)c1ccco1 |
| ? | CCOc1cc(C(=O)Nc2nnc(C)s2)cc(OCC)c1OCC |
| -18.2% | COc1ccc(-c2cc(C(=O)Nc3cc(C)nn3-c3ccccc3)no2)cc1 |
| 0.4% | COc1ccc(OC(C)C(=O)N2CC(C)OC(C)C2)cc1 (centres undefined) |
| ? | Cc1cc(C(=O)NCc2cc(C)n(C)n2)sc1-c1ccccc1 |
| ? | COc1ccc(CCNc2oc(-c3ccccc3OC)nc2C#N)cc1OC |
| -5.4% | CCOc1ccc(NCc2nnc(SCc3ccc(Cl)cc3)n2-c2ccccc2)cc1 |
| -11.6% | CCc1cc2cc(C(=O)Nc3ccccc3F)sc2s1 |
| 2.1% | Cc1noc(C)c1C(=O)N1CCC[C@@]2(CCN(C(=O)Nc3cccc(C#N)c3)C2)C1 |
| -13.9% | Cc1cc(/C=C2/NC(=O)N(Cc3ccccc3F)C2=O)c(C)n1C |
| -9.6% | Cn1c(Cn2c(=O)sc3ccccc32)nnc1SCC(=O)N1CCN(c2ccccc2)CC1 |
| -16.7% | COc1ccc(CCn2c(=N)c(C(=O)NCc3ccco3)cc3c(=O)n4cccc(C)c4nc32)cc1 |
| -9.0% | COc1ccc(N2C(=O)CCC(C(=O)c3ccccc3)=C2C)cc1 |
| 20µM* | CN(C)CCNC(=O)c1ccc(-c2nn(C)c(=O)c3ccccc23)cc1 |
| 1.26µM* | CCN(CC)CCNC(=O)c1cc(Sc2nnc(C)s2)nc2ccccc12 |

| HPGD inh | structure |
| --- | --- |
| -0.9% | CC(C)(C)c1ccc(CS(=O)(=O)CC2(O)CCN(C(=O)c3cccc(C(F)(F)F)c3)CC2)cc1 |
| -18.9% | O=C(COC(=O)CCC1CCCCC1)Nc1ccc(OC(F)F)cc1 |
| -8.7% | OC(CSc1c(Cl)cccc1Cl)CN1CCN(c2ccc(F)cc2)CC1 (centres undefined) |
| -8.6% | COc1cccc(-c2cncnc2NCc2ccc(OC)cc2OC)c1 |
| ? | O=C(c1ccc(Oc2ccc(C(F)(F)F)cc2[N+](=O)[O-])cc1)N1CCOCC1 |
| -0.6% | CC1=C(C(=O)Nc2ccc(C)cc2C)C(c2ccc([N+](=O)[O-])cc2)n2ncnc2N1 (centres undefined) |
| 12.6µM* | O=C(NCc1ccccc1)c1ccc(Cl)cc1[N+](=O)[O-] |
| -15.8% | CCCCOc1ccc(NC(=O)CSc2nnnn2C)cc1 |
| -5.7% | O=C1CC(=C(c2ccccc2)c2ccccc2)C(=O)N1CCCN1CCN(c2cccc(Cl)c2)CC1 |
| -13.3% | Cc1ccccc1CS(=O)(=O)Cc1ccc(C(=O)NCC2CCCO2)o1 (centres undefined) |
| ? | O=C1CC(c2ccccc2)c2cc(O)ccc2O1 (centres undefined) |
| -17.9% | CC(=O)Nc1cccc(-c2nnc(-c3ccccc3)o2)c1 |
| -8.2% | CCCC(=O)Nc1cccc(-c2cn3ccsc3n2)c1 |
| -5.7% | Cn1c2c(c(=O)n(C)c1=O)[C@@H]1c3c(ccc4ccccc34)OC[C@@H]1CO2 |
| -13.3% | CNC(=S)Nc1ccc2nc(C)c(C)nc2c1 |
| ? | O=c1oc2cc(OCc3c(F)c(F)c(F)c(F)c3F)ccc2cc1-c1ccccn1 |
| -2.9% | O=C(CN1CCc2ccccc2C1)Nc1cc(S(=O)(=O)N2CCOCC2)ccc1N1CCOCC1 |
| ? | O=C(Nc1ccccc1-c1nnc(SCc2ccccc2)o1)c1ccccc1 |
| -2.6% | Cc1ccc(C(=O)Nc2c3c(nn2C(C)(C)C)CS(=O)(=O)C3)cc1C |
| -24.2% | Cc1cccc(C(=O)NNS(=O)(=O)c2ccccc2[N+](=O)[O-])c1 |
| -4.5% | CC(=O)c1ccc(N2C(=O)[C@@H]3C(CCC(N)=O)NC4(C(=O)Nc5c4ccc(Cl)c5C)[C@@H]3C2=O)cc1 (some centres undefined) |
| -19.0% | O=C(Cc1cccs1)Nc1ccc(-c2nc3ccccc3[nH]2)cc1 |
| -2.6% | CNC(=S)N1CCN(c2ccccc2OC)CC1 |
| -9.1% | Oc1c(Cl)ccc(Cl)c1Cl |
| -6.9% | CCOC(=O)c1sc(NC(=O)CNC(=O)Cn2cnc3sc(C)c(C)c3c2=O)nc1C |

| HPGD inh | structure |
| --- | --- |
| -13.9% | COc1ccc(C(=O)/C(C)=N/O)cc1OC |
| -14.8% | C=CCNC(=S)N(CC=C)C1CCS(=O)(=O)C1 (centres undefined) |
| -5.9% | COc1ccc(S(=O)(=O)N(CC(=O)NC2CC2)C2CCCCC2)cc1Cl |
| -1.3% | CCOC(=O)/C=C/C(=O)Nc1ccccc1-c1ccccc1NC(=O)/C=C/C(=O)OCC |
| -9.7% | CCNC(=S)N1CCN(c2cccc(C(F)(F)F)c2)CC1 |
| -4.8% | Cc1cc(Cl)ccc1OC(C)c1nnc(N)s1 (centres undefined) |
| -12.1% | O=C(O)CC/C(=N\NC(=O)c1ccccc1Br)c1ccccc1 |
| -1.6% | Brc1ccc(CN2CCN(c3ccccn3)CC2)s1 |
| -8.5% | CCC(CC)C(=O)Nc1cccc(-c2nc3ccccc3o2)c1 |
| -6.5% | CC(=O)N1CCC(N(C(=O)Nc2c(F)cccc2F)C(C)C)CC1 |
| -10.9% | COCCCN1CCc2[nH]c(=S)[nH]c(=O)c2C1 |
| -0.7% | COc1ccc(NC(=O)CCS(=O)(=O)c2cccc3nonc23)c(OC)c1 |
| -16.0% | COc1ccc(C2=NOC(C(=O)NCc3cccs3)C2)cc1 (centres undefined) |
| -3.8%&-4.2% | CNC[C@H](O)c1cccc(O)c1 |
| -2.1% | O=C(/C=C/c1ccc(Br)cc1)NC(=S)Nc1ccc(S(=O)(=O)Nc2nccs2)cc1 |
| -1.9% | CC(C)=CC1C(C(=O)O)C1(C)C (centres undefined) |
| -9.5% | CC(C)c1ccccc1NC(=S)NCc1ccccc1F |
| -7.5% | CC(C)(C)C(=O)[C@H]1[C@H](c2ccccc2)[C@@]2(N=C(c3ccccc3)OC2=O)C2c3ccccc3C=NN21 (some centres undefined) |
| -11.6% | COc1ccc2cc(C3CC(c4ccco4)=NN3C(=O)CCC(=O)O)c(Cl)nc2c1 (centres undefined) |
| -5.5% | O=C(N[C@@H](Cc1c[nH]c2ccccc12)C(=O)NC1CC1)c1ccccc1Cl |
| -9.7% | CCOc1ccc(NC(=O)CN(C)CC(=O)NC2CCCc3ccccc32)cc1OCC (centres undefined) |
| -8.9% | COc1ccc(C(=O)Nc2ccccc2NC(=O)c2ccco2)cc1OC |
| -10.6% | COC(=O)CCN(C(=O)C12CC3CC(CC(C3)C1)C2)c1ccccn1 |
| -18.8% | COc1ccc(OC)c(N(CC(=O)NC2CC2)S(=O)(=O)c2ccc(C)cc2)c1 |
| -1.4% | CC(C)N(Cc1nnc(-c2ccccc2Cl)o1)C(=O)c1cccc(C#N)c1 |

| HPGD inh | structure |
| --- | --- |
| -9.8% | CNC(=O)c1ccc(N(Cc2ccccc2)S(C)(=O)=O)cc1 |
| -10.8% | CN(C(=O)c1cc2n(n1)C(C(F)(F)F)CC(c1ccco1)N2)c1ccc(OC(F)(F)F)cc1 (centres undefined) |
| -4.7% | O=C(OC(C(=O)NCC1CCCO1)c1ccc(F)cc1)c1ccco1 (centres undefined) |
| -9.9% | CCCC(=O)NC(=S)NNC(=O)c1ccc([N+](=O)[O-])cc1 |
| 25.1µM* | COc1ccc(Nc2oc(COc3ccc(C)cc3)nc2C#N)cc1 |
| -14.9% | CCOC(=O)c1c(C)c(C(=O)NCCCOC(C)C)c(C)n1C |
| ? | COc1ccc2c(Cl)c(C(=O)NCCCn3ccnc3)sc2c1Cl |
| -9.2% | CC12CCC(C(=O)Nc3ncc([N+](=O)[O-])s3)(OC1=O)C2(C)C (centres undefined) |
| -2.3% | COc1ccccc1CN(CC(=O)NCc1ccco1)C(=O)CNS(=O)(=O)c1ccccc1 |
| -14.2% | CC1=NN(c2ccccc2)C(=O)C1N=Nc1ccc(N)cc1 (centres undefined) |
| -3.7% | COc1cc([N+](=O)[O-])ccc1NC(=O)Cc1ccc(F)cc1 |
| -24.8% | CCOC(=O)c1c(C)nc2c(c1C)/C(=N/O)CC(C)(C)C2 |
| -15.2% | O=C(NCc1ccccc1)c1ccc(F)c(S(=O)(=O)N2CCOCC2)c1 |
| -16.6% | CCC(=O)N1CCN(c2ccc(Cl)cc2NC(=O)c2ccc(N3CCCC3)c([N+](=O)[O-])c2)CC1 |
| -18.2% | CCC(C)NC(=O)Cc1cn(C)c2ccccc12 (centres undefined) |
| 35.5µM* | O=C1OC(c2ccccc2)/C(=C(/O)c2ccc(Cl)cc2)C1=O (centres undefined) |
| -12.3% | O=C(O)c1ccc(NC(=S)NC2CCCCC2)cc1 |
| -8.6% | COc1ccc(Oc2nc(C)cc(C)c2C#N)cc1 |
| -3.5% | Cc1oc(-c2ccc(Cl)cc2)nc1CS(=O)CC(=O)NCCN1CCCC1 (centres undefined) |
| -9.8% | COCCNc1ccnc(-c2cccc(NS(C)(=O)=O)c2)n1 |
| -16.1% | COc1ccccc1N(C(=O)c1ccncc1)c1nc(-c2ccc([N+](=O)[O-])cc2)cs1 |

Random excerpt: 5 compounds from above
| HPGD inh | structure |
| --- | --- |
| -12.3% | O=C(O)c1ccc(NC(=S)NC2CCCCC2)cc1 |
| ? | COc1ccc2c(Cl)c(C(=O)NCCCn3ccnc3)sc2c1Cl |
| -24.8% | CCOC(=O)c1c(C)nc2c(c1C)/C(=N/O)CC(C)(C)C2 |
| -3.5% | Cc1oc(-c2ccc(Cl)cc2)nc1CS(=O)CC(=O)NCCN1CCCC1 (centres undefined) |
| -3.7% | COc1cc([N+](=O)[O-])ccc1NC(=O)Cc1ccc(F)cc1 |

Not all compounds are listed; rates above refer to the full screens.
